# VDR inh: vitamin D3 receptor (human) inhibition; Potency, µM, inactives show max response, negative = inhibition, most hits filed as inhibitors; P11473; hit rate 0.93% among 400,000; AID 504847; VDR-SRC2-3 peptide fluorescence polarization, 2 h; active means well fitted inhibition curve with a large enough effect; inconclusive means small, poorly fitted or top-dose-only effect, or another doubt; inactive means no such curve, though single readings can be large or run the other way; further: series mostly up to about 120 µM
# Target sequence (P11473 whole entry, looked up): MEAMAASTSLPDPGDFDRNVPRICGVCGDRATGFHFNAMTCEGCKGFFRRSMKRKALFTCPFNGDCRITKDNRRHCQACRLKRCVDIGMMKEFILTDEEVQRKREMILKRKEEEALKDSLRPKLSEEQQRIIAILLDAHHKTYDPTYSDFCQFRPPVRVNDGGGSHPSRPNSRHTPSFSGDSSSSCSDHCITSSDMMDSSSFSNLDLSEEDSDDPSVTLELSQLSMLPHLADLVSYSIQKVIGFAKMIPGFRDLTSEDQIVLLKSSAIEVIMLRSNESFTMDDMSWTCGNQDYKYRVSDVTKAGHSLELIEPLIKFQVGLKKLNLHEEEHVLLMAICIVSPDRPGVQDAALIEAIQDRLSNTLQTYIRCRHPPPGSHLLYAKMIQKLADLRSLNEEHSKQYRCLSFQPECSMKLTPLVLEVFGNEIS
#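 FP read-out; VDR + SRC2-3 coactivator peptide; 23 nl compound by pintool; 2 h RT incubation; reagents held at 4 deg C, protected from light.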
# An asterisk follows results filed as active; ? = inconclusive; & = joins results of further samples. On the % scale 0 is the no-effect control and ±100 the full control effect; potency means the concentration at half of the fitted maximal effect. Some of the compounds tested. The share of hits here may be higher or lower than overall.
Molecule	VDR inh
CCn1nnc(NC(=O)c2ccc([N+](=O)[O-])o2)n1	2%
O=C(OC1CCCCC1=O)c1ccc(F)c(S(=O)(=O)N2CCOCC2)c1 (stereo unspecified)	-9%
CCCSc1nnc(Sc2nnnn2-c2ccccc2)s1	?
COc1ccccc1N(C(=O)c1ccco1)C(C(=O)NC1CCCC1)c1ccc(N2CCOCC2)cc1 (stereo unspecified)	18%
COc1ccc(-c2nnc(C3CCN(S(=O)(=O)c4ccccc4)CC3)o2)cc1	0%
CCCCC(=O)N1CCCC(c2nc(-c3cccc(OC)c3)no2)C1 (stereo unspecified)	0%
Cc1cccc(N(C)C(=O)CN(C)S(=O)(=O)c2ccc3c(c2)c(=O)n(C)c(=O)n3C)c1	-16%
CCCN(CC(=O)Nc1ccccc1C)C(=O)c1cccc(S(=O)(=O)N2CCc3ccccc3C2)c1	16%
CN1CCN(S(=O)(=O)c2ccc(-c3ccccc3)cc2)CC1	-2%
O=C(N[C@@H](Cc1ccccc1)C(=O)NC1CC1)c1ccc(Cl)cc1	-1%
COc1ccc(C(=O)NCC(=O)OCCCOC(=O)CNC(=O)c2ccc(OC)c(OC)c2)cc1OC	4%
O=C(NCc1ccccc1)C(=O)Nc1c2c(nn1-c1ccccc1)CSC2	25%
COc1ccc2nc(NC(=S)NC(=O)c3ccco3)sc2c1	-13%
CCN(CC)CCn1c(NCc2nc3ccccc3n2Cc2ccccc2)nc2ccccc21	0%
CC1=C2[C@@H](O)[C@H]([C@@H](C)C(=O)NCCC(C)C)CC[C@@]2(C)C=CC1=O	-3%

# 3 entries already listed, sorted by SMILES length, ascending.
Molecule	VDR inh
O=C(NCc1ccccc1)C(=O)Nc1c2c(nn1-c1ccccc1)CSC2	25%
O=C(N[C@@H](Cc1ccccc1)C(=O)NC1CC1)c1ccc(Cl)cc1	-1%
COc1ccccc1N(C(=O)c1ccco1)C(C(=O)NC1CCCC1)c1ccc(N2CCOCC2)cc1 (stereo unspecified)	18%

# Continued.
Molecule	VDR inh
CCCc1nn2c(=O)cc(CSCC(=O)Nc3ccc(C)cc3)nc2s1	2%
CCn1c(SCC(=O)Nc2cccc(NC(C)=O)c2)nnc1-c1ccco1	-6%
Cc1csc2ncnc(N3CCN(C(=O)Nc4ccc(OC(F)(F)F)cc4)CC3)c12	-3%
CCc1ccc(NC(=O)CC2C(=O)N(c3cccc(OC)c3)C(=O)N2C2CCCC2)cc1 (stereo unspecified)	-9%
CCOC(=O)O[C@@H](C)OC(=O)[C@@H]1N2C(=O)[C@@H](NC(=O)[C@@H](N)c3ccccc3)[C@H]2SC1(C)C	-1%
CCC(=S)/C=C1\Sc2ccccc2N1CCCS(=O)(=O)O	71µM*
CCN(CCNC(=O)C1CCN(S(=O)(=O)c2cccc3nsnc23)CC1)c1ccccc1	-1%
CN(C(=O)C1CCN(S(=O)(=O)c2cccs2)CC1)c1ccccc1	0%
C[C@H]1C[C@H]2[C@@H]3CCC4=CC(=O)C=C[C@]4(C)[C@@]3(Cl)[C@@H](O)C[C@]2(C)[C@@]1(O)C(=O)CO	0%&-4%
O=[N+]([O-])c1cccc(S(=O)(=O)NCCc2cccs2)c1	-2%
O=C1NC(=S)N/C1=C\c1cccc([N+](=O)[O-])c1	-4%
CSc1nnc2c3ccccc3n(CCc3ccccc3)c2n1	-7%
Cc1cc2ccccn2c1C(=O)c1cccc(F)c1	2%
CC1CC(C)CN(S(=O)(=O)c2ccc(C(=O)Nc3sccc3C(N)=O)cc2)C1 (stereo unspecified)	7%
Cc1ccc(C)c2sc(NC(=O)CN3C(=O)CCC3=O)nc12	?
COc1ccc(CN(C2CCCC2)S(=O)(=O)c2ccc(-n3cnnn3)cc2)cc1	10%
O=C(/C=C/c1cccc(F)c1)Nc1nccs1	-9%
O=C(Nc1nccs1)C1CCN(S(=O)(=O)c2c(Cl)cccc2Cl)CC1	15%
COc1ccc(OC)c(S(=O)(=O)NCc2cn3ccsc3n2)c1	8%
COc1ccc(-c2nc(SC(C)C(=O)Nc3ccc(NC(C)=O)cc3)n[nH]2)cc1 (stereo unspecified)	-24%
O=C(CN1CCOCC1)N1CCN(c2nnc(-c3ccccc3)c3ccccc23)CC1	5%
OCCNC(=S)NCc1ccccc1	-14%
COc1ccc(N2CCN(C(CNC(=O)C(=O)NCc3cccnc3)c3ccco3)CC2)cc1 (stereo unspecified)	2%
Cc1cc(C)cc(NC(=O)CSc2nnc(CNC(=O)c3cccs3)o2)c1	-12%
Cc1ccccc1Cn1c(C)c(CNCc2ccccc2)c(C(=O)O)c1C	4%
NC(=O)C[N+]1(CC#CC(O)(c2ccccc2)c2ccccc2)CCCC1	-10%
C=CCn1c(SCC(=O)N(CC)CC)nc(O)cc1=O	6%
COc1ccc(C(=O)CC2(O)C(=O)N(CCc3ccccc3)c3ccc(Br)cc32)cc1OC (stereo unspecified)	-11%
Cc1ccc(S(=O)(=O)NCC(=O)Nc2cccnc2)cc1C	-5%
CCc1ccc(NC(=O)CN(c2ccccc2)S(=O)(=O)N(C)C)cc1	24%

# Arranged by the number under VDR inh (descending): some entries from above
Molecule	VDR inh
COc1ccc(OC)c(S(=O)(=O)NCc2cn3ccsc3n2)c1	8%
C=CCn1c(SCC(=O)N(CC)CC)nc(O)cc1=O	6%
NC(=O)C[N+]1(CC#CC(O)(c2ccccc2)c2ccccc2)CCCC1	-10%
COc1ccc(-c2nc(SC(C)C(=O)Nc3ccc(NC(C)=O)cc3)n[nH]2)cc1 (stereo unspecified)	-24%

# Further entries
Molecule	VDR inh
Cc1ccc2[nH]c(=O)c(CN(Cc3cccs3)Cc3nnnn3Cc3ccccc3)cc2c1	6%
CCCOc1ccc(/C=N/NC(=O)CN2CCCCC2)cc1	-24%
Cc1sc(NC(=O)CS(=O)(=O)c2ccccc2)c(C#N)c1C	-13%
CC(C)/C=C/CN1CCN(CCCc2ccccc2)C(CCO)C1 (stereo unspecified)	?
O=C(N/N=C/c1cccc(Cl)c1Cl)Nc1ccccc1	5%
CCN1C(=O)C(CC(=O)Nc2ccc(Cl)cc2)N(NC(=O)c2ccncc2)C1=S (stereo unspecified)	9%
c1ccc(-c2cccc(N3CCCC4(CCNCC4)C3)c2)cc1	50µM*
CCOc1ccc(NC(=O)CSC2=Nc3ccccc3C3=NC(CC(=O)NCc4ccc5c(c4)OCO5)C(=O)N23)cc1 (stereo unspecified)	5%
Cc1ccc(CNC(=O)C2CCN(S(=O)(=O)c3cnc[nH]3)CC2)cc1	2%
CCOC(=O)C1(CC2CC2)CCN(Cc2cnc(-c3ccccc3C)nc2)CC1	-8%
Cc1ccc(S(=O)(=O)N2CCCCC2)cc1NC(=O)CN1C(=O)CN(C)C1=O	-3%
O=C(O)CN(CC(=O)O)c1ccccc1OCCOc1ccccc1N(CC(=O)O)CC(=O)O	14%
CCCCn1c(-c2ccc(OC)cc2)nc2c(=O)n(C)c(=O)[nH]c21	50µM*
CN(c1ccc(OCC(=O)N2CCCC2)cc1)S(=O)(=O)c1ccc(Cl)cc1	-10%
COC(=O)c1cnn(-c2ccc(C(=O)Nc3cccc(C(C)=O)c3)cc2)c1N	-1%
C/C(=N\NC(=O)c1nc2ccccn2c1C)c1cccc([N+](=O)[O-])c1	4%
CC(=O)c1cccc(OCc2cc(C(=O)N(C)CCc3ccccn3)no2)c1	-13%
O=C(NCC1OCCCN1S(=O)(=O)c1cc(F)ccc1F)C(=O)NC1CCCC1 (stereo unspecified)	1%
O=C(/C=C/c1ccc([N+](=O)[O-])cc1)Nc1ncc([N+](=O)[O-])s1	1%
CCNC(=S)N1CCCCC1CO (stereo unspecified)	-2%
COc1ccc(-c2cn3c(C)c(C(=O)N4CCCc5ccccc54)sc3n2)cc1	-6%
CC(C)(C)OC(=O)C[C@H]1C/C=C\C[C@H](CC(=O)NCCO)C(=O)N[C@@H](c2ccccc2)COC1=O	-12%
CCC(=O)N1CC2(c3ccccc3)CN(C(=O)CC)CC(c3ccccc3)(C1)C2=O	-5%
C=CCN(c1ccccc1)S(=O)(=O)c1cccc(C(=O)NCC(c2ccc(OC)cc2)N2CCCCC2)c1 (stereo unspecified)	-19%
Cc1ccc(C(=O)NCCCNC(=O)c2ccc(C)nc2)cc1	-14%
Cc1cccc(NC(=O)CSc2nnc(CN3CCOCC3)n2C)c1C	4%
COc1ccc(Nc2c(-c3ccco3)nc3cccc(C)n23)cc1	0%&-17%
CC1(C)C2CCC1(CS(=O)(=O)NC1CCCC1)C(=O)C2 (stereo unspecified)	-4%
Cc1ccc(C(=O)CSc2ccccn2)cc1	79µM*
CCN(CC)CCCn1c2c(c(SCC(=O)Nc3nc4ccccc4s3)nc1=O)CCC2	-15%

# Next compounds.
molecule,VDR inh
CCOc1ccc(N(CC)C(=O)CCc2nc(-c3ccccc3F)no2)cc1,8%
Cc1ccc(C2(C)NC(=O)N(CC(=O)N3c4ccccc4NC(=O)CC3C)C2=O)cc1 (stereo unspecified),-5%
CC(=O)Nc1ccc(C(=O)Nc2nc(-c3ccccn3)cs2)cc1,-24%
O=C(CNC(=O)c1ccc(Br)o1)NC1CCCCC1,-3%
CS(=O)(=O)NCCNc1cc(Cl)ccc1[N+](=O)[O-],-9%
COCCN1C(=O)c2oc3ccc(C)cc3c(=O)c2C1c1ccc(C(=O)OC)cc1 (stereo unspecified),1%
O=C(Cc1ccc(Cl)cc1)Nc1ccc(N2CCN(C(=O)c3ccco3)CC2)cc1,-11%
CC(C)[C@H](NC(=O)N1CCn2c1nc1ccccc12)C(=O)N[C@@H](C(=O)O)c1ccccc1,-18%
Oc1ccc(N=Nc2ccc3c(c2)OCCO3)c2ncccc12,-5%
Cc1nnc(SCCCn2c(N3CCN(c4ccccc4)CC3)nc3c2c(=O)[nH]c(=O)n3C)s1,-10%
O=C(O)Cc1csc(NC(=O)c2ccco2)n1,-13%
CC(C)C1NC2(C(=O)c3ccccc3C2=O)C2C(=O)N(c3ccc(F)cc3)C(=O)C12 (stereo unspecified),-6%
CCn1cc(C(=O)NCCc2ccccc2)c(=O)c2cc(S(=O)(=O)N3CCCC3)ccc21,-21%
CC(N1CCOC1=O)S(=O)(=O)c1ccccc1 (stereo unspecified),3%
COc1ccccc1NS(=O)(=O)c1cccc(C(=O)NCC2(N3CCCCC3)CCCCC2)c1,-13%
O=C(Nc1ccc(Cl)cc1)c1ccc2c(c1)S(=O)(=O)c1ccccc1C2=O,-3%
COc1cccc(C2=NN(C(=O)c3ccco3)C(O)(C(F)(F)F)C2)c1 (stereo unspecified),4%
COc1ccc(N2CCN(CCCNC(=O)Nc3ccccc3Cl)CC2)cc1,-13%
COc1cccc2nc3cc(C)c(C)cc3nc12,22µM*
CCOc1ccc(/C=C/C(=O)OCC(=O)Nc2cccc(S(=O)(=O)N3CCCC3)c2)cc1,13%
Nc1c(-c2ccc(Cl)cc2)nnn1-c1ccccc1,-6%
COC(=O)CC1C(=O)NCCN1C(=O)c1ccc(S(=O)(=O)N2CCOCC2)cc1 (stereo unspecified),-12%
Cc1cccc(N2CCN(S(=O)(=O)c3ccc4oc(=O)c5ncn(C)c5c4c3)CC2)c1C,17%
O=C(CNC(=S)NC(=O)c1ccc(F)cc1)c1ccccc1,-4%
COc1cccc(CNc2ccc(C(=O)O)cc2)c1OCc1ccccc1,4%

# Some values from the list.
# Entry of COc1cccc(C2=NN(C(=O)c3ccco3)C(O)(C(F)(F)F)C2)c1 (stereo unspecified) in VDR inh: 4%
# Entry of CCOc1ccc(N(CC)C(=O)CCc2nc(-c3ccccc3F)no2)cc1 in VDR inh: 8%
# Entry of COCCN1C(=O)c2oc3ccc(C)cc3c(=O)c2C1c1ccc(C(=O)OC)cc1 (stereo unspecified) in VDR inh: 1%
# Entry of COC(=O)CC1C(=O)NCCN1C(=O)c1ccc(S(=O)(=O)N2CCOCC2)cc1 (stereo unspecified) in VDR inh: -12%
# Entry of CC(N1CCOC1=O)S(=O)(=O)c1ccccc1 (stereo unspecified) in VDR inh: 3%
# Entry of O=C(Cc1ccc(Cl)cc1)Nc1ccc(N2CCN(C(=O)c3ccco3)CC2)cc1 in VDR inh: -11%

# The results go on:
molecule,VDR inh
COc1ccc(/C=N/NC(=O)c2ccc(N(C)S(=O)(=O)c3ccccc3)cc2)c(OC)c1,-8%
CCOC(=O)c1ccc(-n2c(CN3CCC(O)CC3)nc3ccc([N+](=O)[O-])cc3c2=O)cc1,-14%
O=C(CSc1ncnc2scc(-c3ccccc3)c12)NCc1ccc2c(c1)OCO2,16%
Fc1ccccc1CNCCC(Cc1ccccc1)c1ccc2c(c1)OCO2 (stereo unspecified),2%
Cc1cc(C)cc(C(=O)NC(CC(N)=O)c2ccc(NC3CCCCCCCCCCC3)c([N+](=O)[O-])c2)c1 (stereo unspecified),17%
Cc1noc(N)c1C(=O)Nc1ccc(C(C)(C)C)cc1,-10%
CCCc1c(C)nc(N2CCN(c3ccc(F)cc3)CC2)[nH]c1=O,9%
CN(C(=O)c1ccc2c(c1)N(Cc1cccc(Cl)c1)C(=O)c1ccccc1S2(=O)=O)C1CCCCC1,16%
CCOC(=O)C1CCN(C(=O)Cc2c(C(=O)O)[nH]c3ccccc23)CC1,15%
COc1ccc(NC(=O)CN(C)CC(=O)Nc2ccc3c(c2)CCC3)cc1,1%
CC(=O)N1CCN(C(=O)c2cccc(S(=O)(=O)Nc3c(C)n(C)n(-c4ccccc4)c3=O)c2)CC1,0%
O=C(CCc1nnc(CCc2c[nH]c3ccccc23)o1)NC1CCC1,?
N/C(=N\OC(=O)Nc1ccc(Cl)cc1)c1ncc(C(F)(F)F)cc1Cl,-5%
O=C(Cn1nc(-c2ccc(Cl)cc2)ccc1=O)NCc1ccccc1Cl,17%
COc1ccccc1NC(=O)c1c(Br)cnn1C,10%
C=CCc1cccc(/C=N/NC(=O)C(C)Nc2cccc(C)c2)c1O (stereo unspecified),0%
COc1ccc2c(c1)c(=O)oc1cc(OC(C(=O)O)c3ccccc3)ccc12 (stereo unspecified),-7%
COc1ccccc1NC(=O)C(C)N(C)Cc1ccc(Cl)s1 (stereo unspecified),23%
Cc1ccc(CNS(=O)(=O)/C=C/c2ccc3c(c2)OCO3)cc1,7%
COc1cccc(/C=C/C(=O)c2ccc(NC3=NCCCS3)cc2)c1,?
N#Cc1c(-n2cccc2C=O)sc2c1CCCC2,?

# Screening results from PubChem.
